Compound activity deposited in PubChem by Broad Institute.
YB-1 expression – YB-1 expression inhibition; U2OS, qRT-PCR YB-1 vs CDIP delta delta Cp, 16 h; hits give high values; zero = DMSO, each unit about twofold; delta delta Cp (YB-1 minus CDIP) (concentration not given with the values); 30,000 compounds, 0.37% hits; AID 434959;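 active = delta delta Cp rounded down to an integer at or above 3, about 3 SD of DMSO wells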;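 note: higher means less YB-1 transcript or more CDIP transcript relative to DMSO; stock transfer was 100 nL into about 100 µL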
An asterisk follows results filed as active. The list is partial, so the mix of outcomes need not match the whole.

item	mol	YB-1 expression
1	C[C@@H]1CN([C@H](C)CO)C(=O)CCCn2cc(nn2)CO[C@@H]1CN(C)Cc1cccc(C(F)(F)F)c1	-0.0012
2	O=C(O)c1ccc(/C=N/NC(=O)c2cccc(C(=O)NO)c2)cc1	0.14
3	O=C(CCCCCCC(=O)Nc1ccccc1O)NN=C1CCCCCC1	0.45
4	C[C@H]1CN([C@@H](C)CO)C(=O)CCCn2cc(nn2)CO[C@H]1CN(C)C(=O)Nc1ccc(C(C)(C)C)cc1	0.13
5	CCCC(O)C#Cc1cnc2c(c1)C(=O)N([C@H](C)CO)C[C@H](C)[C@H](CN(C)C(=O)NC1CCCCC1)O2 (stereo not given in full)	0.011
6	C[C@@H]1CN([C@@H](C)CO)C(=O)CCCn2nncc2CO[C@H]1CN(C)C(=O)Nc1ccc(C(F)(F)F)cc1	-0.18
7	CN(C)CCCC[C@@H]1NC(=O)[C@@H]2C[C@H](C(=O)O)[C@H](c3cccc(OCCO)c3)N2C1=O	0.29
8	C[C@H]1CN([C@@H](C)CO)C(=O)CCCn2nncc2CO[C@@H]1CN(C)S(=O)(=O)c1ccc(F)cc1	-0.12
9	C[C@@H]1CN([C@@H](C)CO)C(=O)CCCn2nncc2CO[C@H]1CN(C)Cc1ccc2cccnc2c1	0.075
10	COc1ccc([Si](C)(C)[C@H]2[C@H](CCO)O[C@@]3(C(=O)N4c5c(cc(OC)cc53)C(C)=CC4(C)C)[C@@H]2C)cc1	0.24
11	C=CC[C@@]1(C(=O)N2CCCCC2)N=C(c2ccc(OCCCO)cc2)O[C@@H]1c1ccccc1	0.34
12	O=C1O[C@@H](c2ccccc2)[C@@H](c2ccccc2)N2[C@@H](c3ccccc3OCCO)[C@]3(C(=O)Nc4ccc(C#CC5(O)CCCCCC5)cc43)[C@@H](C(=O)O)[C@H]12	0.41
13	COc1ccc(C#Cc2ccc3c(c2)[C@]2(C(=O)N3)[C@H](C(=O)O)[C@H]3C(=O)O[C@H](c4ccccc4)[C@H](c4ccccc4)N3[C@@H]2c2ccc(OCCO)cc2)cc1	-0.097
14	COc1ccccc1NC(=O)N(C)C[C@H]1OCc2cnnn2CCCC(=O)N([C@H](C)CO)C[C@H]1C	-0.0054
15	C[C@@H]1CN([C@@H](C)CO)C(=O)CCCn2nncc2CO[C@H]1CN(C)Cc1ccc2c(c1)OCO2	-0.29
16	C[C@H](CO)N1C[C@H](C)[C@H](CN(C)C(=O)Nc2ccnc(N3CCOCC3)c2)OCc2cnnn2CCCC1=O	0.42
17	CC1=C(C/C=N/NC(=O)CCCCCCC(=O)Nc2ccccc2O)C(C)(C)CCC1	0.21
18	COCCCNC(=O)[C@]1(Cc2ccccc2N=[N+]=[N-])N=C(c2ccc(OCCCO)cc2)O[C@@H]1c1ccccc1N=[N+]=[N-]	0.34
19	O=C(CCCCC(=O)N/N=C/c1cccnc1Cl)NO	-0.47
20	OCc1ccc(-c2cc[n+](Cc3cc4c(cc3Br)OCO4)cc2)cc1	-0.34
21	C[C@@H]1CN([C@H](C)CO)C(=O)CCCn2nncc2CO[C@H]1CN(C)S(=O)(=O)c1ccc2ccccc2c1	-0.063
22	COc1ccc(CCNC(=O)[C@@H]2c3ccccc3C(=O)N(CC34CC5CC(CC(C5)C3)C4)[C@H]2c2ccc(CO)cc2)cc1	0.12
23	O=C(CCCCCCC(=O)Nc1ccccc1O)N/N=C/c1ccc(F)cc1	0.33
24	O=C(NO)c1ccc(C(=O)N/N=C/c2cc3c(cc2Br)OCO3)cc1	-0.11
25	COCCOC(=O)N1C(=O)[C@@]2(c3cc(C#CCC(C(=O)OC)C(=O)OC)ccc31)[C@H](C(=O)N1CCc3cc(OC)c(OC)cc3C1)[C@H]1C(=O)O[C@H](c3ccccc3)[C@H](c3ccccc3)N1[C@@H]2c1ccccc1OCCO	0.3
26	COc1ccccc1S(=O)(=O)N(C)C[C@@H]1OCc2cn(nn2)CCCC(=O)N([C@@H](C)CO)C[C@@H]1C	-0.26
27	COc1ccc(NC(=O)N(C)C[C@@H]2Oc3ncc(Br)cc3C(=O)N([C@H](C)CO)C[C@@H]2C)cc1	-0.7
28	O=C(O)CCCCCC(=O)N/N=C/c1ccccc1[N+](=O)[O-]	-0.011
29	C=CCNC(=O)[C@@H]1[C@H]2C(=O)O[C@H](c3ccccc3)[C@H](c3ccccc3)N2[C@H](c2ccccc2OCCO)[C@@]12C(=O)Nc1ccc(C#CCNC(N)=O)cc12	0.075
30	C[C@H](CO)N1C[C@H](C)[C@H](CN(C)Cc2cccc(C(F)(F)F)c2)OCc2cn(nn2)CCCC1=O	0.079
31	O=C(NO)c1cccc(C(=O)N/N=C/c2ccc(O)cc2)c1	-0.37
32	COc1ccc(S(=O)(=O)N(C)C[C@@H]2Oc3ncc(-c4cccc(OC)c4)cc3C(=O)N([C@H](C)CO)C[C@@H]2C)cc1	0.068
33	COCCOC(=O)N1C(=O)[C@@]2(c3cc(C#Cc4ccc(OC)cc4)ccc31)[C@H](C(=O)N1CCN(c3ncccn3)CC1)[C@H]1C(=O)O[C@H](c3ccccc3)[C@H](c3ccccc3)N1[C@@H]2c1ccccc1OCCO	0.28
34	C[C@H](CO)N1C[C@H](C)[C@H](CN(C)S(=O)(=O)c2ccccc2)Oc2ncc(-c3ccc(F)cc3)cc2C1=O	0.24
35	C[C@H](CO)N1C[C@H](C)[C@H](CN(C)S(=O)(=O)c2ccc(F)cc2)Oc2ncc(C#Cc3cccc(F)c3)cc2C1=O	0.26
36	C[C@@H]1CN([C@@H](C)CO)C(=O)CCCn2cc(nn2)CO[C@H]1CN(C)S(=O)(=O)c1ccccc1C#N	0.11
37	C[C@H]1CN([C@@H](C)CO)C(=O)CCCn2cc(nn2)CO[C@@H]1CN(C)Cc1ccc(Cl)c(Cl)c1	0.18
38	C[C@H](CO)N1C[C@H](C)[C@@H](CN(C)C(=O)Nc2ccc(C(F)(F)F)cc2)OCc2cnnn2CCCC1=O	-0.0043
39	COc1ccc(S(=O)(=O)N(C)C[C@H]2OCc3cnnn3CCCC(=O)N([C@@H](C)CO)C[C@H]2C)cc1	-0.0035
40	C[C@H](CO)N1C[C@H](C)[C@H](CN(C)S(=O)(=O)c2ccc3ccccc3c2)OCc2cn(nn2)CCCC1=O	0.31
41	C[C@@H]1CN([C@@H](C)CO)C(=O)CCCn2cc(nn2)CO[C@@H]1CN(C)C(=O)Nc1cccc(Oc2ccccn2)c1	-0.27
42	O=C(NO)c1ccc(C(=O)N/N=C/c2cc(Br)cc([N+](=O)[O-])c2O)cc1	0.14
43	C[C@@H]1CN([C@H](C)CO)C(=O)CCCn2cc(nn2)CO[C@@H]1CN(C)Cc1ccc(-c2ccccc2)cc1	-0.51
44	COc1ccccc1CN1C(=O)c2ccccc2[C@@]2(Cc3ccccc3N(C(C)C)C2=O)[C@@H]1c1ccc(CO)cc1	-0.42
45	O=C(N/N=C/c1ccccn1)c1ccccn1	0.13
46	COC(=O)CCCCCCC(=O)N/N=C/c1ccc2c(c1)CCO2	0.011
47	CCCNC(=O)[C@@]1(C)c2ccccc2C(=O)N(Cc2ccc(OC(F)(F)F)cc2)[C@H]1c1ccc(CO)cc1	-0.17
48	Cc1ccccc1S(=O)(=O)N(C)C[C@@H]1OCc2cnnn2CCCC(=O)N([C@H](C)CO)C[C@H]1C	-0.68
49	C[C@@H]1CN([C@@H](C)CO)C(=O)CCCn2cc(nn2)CO[C@@H]1CN(C)C(=O)OCc1ccccc1	0.042
50	O=C1N(CCS(=O)(=O)c2ccccc2)Cc2ccccc2C[C@@]12N=C(c1ccc(OCCCO)cc1)O[C@H]2c1ccccc1	0.4

Carrying on:
item	mol	YB-1 expression
51	C[C@@H]1CN([C@@H](C)CO)C(=O)CCCn2nncc2CO[C@H]1CN(C)C(=O)Cc1ccccc1	0.11
52	O=C(N/N=C/c1c(F)c(F)c(F)c(F)c1F)c1ccccc1O	-0.18
53	C[C@@H]1CN([C@@H](C)CO)C(=O)CCCn2cc(nn2)CO[C@@H]1CN(C)S(=O)(=O)c1ccccc1	-0.094
54	O=C(NO)c1cccc(C(=O)N/N=C/c2ccc(CO)o2)c1	0.096
55	COc1ccc(CN(C)C[C@H]2OCc3cnnn3CCCC(=O)N([C@@H](C)CO)C[C@@H]2C)cc1	0.14
56	COCCOC(=O)N1C(=O)[C@@]2(c3cc(C#CC4=CCCCC4)ccc31)[C@H](c1ccc(O)cc1)N1[C@H](c3ccccc3)[C@H](c3ccccc3)OC(=O)[C@H]1[C@@H]2C(N)=O	-0.17
57	COC(=O)CCCCCCC(=O)N/N=C/c1c(OC)cc(O)cc1OC	-0.32
58	COc1cc(/C=N/NC(=O)c2ccccn2)cc(OC)c1OC	0.093
59	C=CCN(Cc1ccccc1)C(=O)[C@@H]1N(C(C)(C)C)C(=O)[C@H]2[C@H](C(=O)O)[C@@H]3C=C[C@]12O3	0.11
60	C[C@H](CO)N1C[C@H](C)[C@@H](CN(C)S(=O)(=O)c2ccccc2F)OCc2cn(nn2)CCCC1=O	-0.24
61	C[C@H](CO)N1C[C@H](C)[C@@H](CN(C)S(=O)(=O)c2ccc(-n3cccn3)cc2)OCc2cnnn2CCCC1=O	0.32
62	C=CCNC(=O)[C@H]1[C@@H]2C(=O)O[C@@H](c3ccccc3)[C@@H](c3ccccc3)N2[C@@H](c2ccc(O)cc2)[C@]12C(=O)Nc1ccc(C#CC3(O)CCCCCC3)cc12	0.22
63	[N-]=[N+]=NCc1ccccc1C[C@@]1(C(N)=O)N=C(c2ccc(OCCCO)cc2)O[C@@H]1c1ccccc1	-0.33
64	C[C@H](CO)N1C[C@H](C)[C@H](CN(C)C(=O)Nc2ccc(F)cc2)Oc2ncc(Br)cc2C1=O	-0.053
65	O=C(NO)c1ccc(C(=O)N/N=C/c2cc(Cl)cc(Cl)c2O)cc1	-0.046
66	C[C@H](CO)N1C[C@H](C)[C@H](CN(C)Cc2ccc(-c3ccccc3)cc2)OCc2cnnn2CCCC1=O	0.042
67	COc1ccccc1CN(C)C[C@@H]1OCc2cn(nn2)CCCC(=O)N([C@H](C)CO)C[C@@H]1C	0.2
68	C[C@@H]1CN([C@@H](C)CO)C(=O)CCCn2cc(nn2)CO[C@@H]1CN(C)C	0.38
69	O=C1O[C@H](c2ccccc2)[C@H](c2ccccc2)N2[C@H]1[C@@H](C(=O)NC[C@H](O)c1ccccc1)[C@]1(C(=O)Nc3ccc(C#CC4(O)CCCCCC4)cc31)[C@H]2c1ccccc1OCCO	-0.5
70	COC(=O)[C@]1(CCS(=O)(=O)c2ccccc2)N=C(c2ccc(OCCCO)cc2)O[C@@H]1c1ccccc1CN=[N+]=[N-]	0.05
71	C[C@@H]1CN([C@@H](C)CO)C(=O)CCCn2cc(nn2)CO[C@@H]1CN(C)C(=O)c1ccncc1	-0.63
72	C[C@H]1CN([C@@H](C)CO)C(=O)CCCn2nncc2CO[C@@H]1CN(C)C(=O)Nc1cccc(Oc2ccccn2)c1	-0.13
73	C[C@@H]1CN([C@H](C)CO)C(=O)CCCn2cc(nn2)CO[C@@H]1CN(C)S(C)(=O)=O	-0.012
74	C[C@@H]1CN([C@@H](C)CO)C(=O)CCCn2nncc2CO[C@H]1CN(C)Cc1ccncc1	0.24
75	CC(C)(C)OC(=O)N1CCC[C@H]1/C=N/NC(=O)CCCCCCC(=O)Nc1ccccc1O	-0.11
76	O=C(CCCCCC(=O)N/N=C/c1ccc(-n2ccnc2)cc1)NO	0.097
77	CNC[C@@H]1Oc2ncc(-c3cccc(C(F)(F)F)c3)cc2C(=O)N([C@H](C)CO)C[C@@H]1C	0.48
78	CN(C)CCCN1C(=O)[C@@]2(Cc3ccccc31)c1ccccc1C(=O)N(C1CCCCC1)[C@H]2c1ccc(CO)cc1	-0.81
79	C[C@H](CO)N1C[C@H](C)[C@H](CN(C)S(=O)(=O)c2ccc(F)cc2)Oc2ncc(/C=C/c3ccccc3)cc2C1=O	-0.45
80	O=C(CCCCC(=O)N/N=C/c1c(F)c(F)c(F)c(F)c1F)NO	0.64
81	O=C(O)CCCCCCC(=O)N/N=C/c1cccc(Br)c1	0.11
82	Cc1ccc(S(=O)(=O)N(C)C[C@@H]2Oc3ncc(C#CCN(C)C)cc3C(=O)N([C@H](C)CO)C[C@@H]2C)cc1	0.06
83	C[C@@H]1CN([C@@H](C)CO)C(=O)CCCn2nncc2CO[C@H]1CN(C)C(=O)c1ccc(N2CCN(C)CC2)cc1	0.23
84	COc1ccc(C#Cc2ccc3c(c2)[C@]2(C(=O)N3)[C@H](C(=O)N3CCc4cc(OC)c(OC)cc4C3)[C@H]3C(=O)O[C@H](c4ccccc4)[C@H](c4ccccc4)N3[C@@H]2c2ccc(O)cc2)cc1	0.27
85	C[C@@H]1CN([C@@H](C)CO)C(=O)CCCn2nncc2CO[C@H]1CN(C)C(=O)Nc1ccc2c(c1)OCO2	0.12
86	COc1ccccc1S(=O)(=O)N(C)C[C@@H]1OCc2cnnn2CCCC(=O)N([C@H](C)CO)C[C@@H]1C	0.19
87	O=C1O[C@@H](c2ccccc2)[C@@H](c2ccccc2)N2[C@@H](c3ccc(O)cc3)[C@]3(C(=O)Nc4ccccc43)[C@@H](C(=O)N3CCN(c4ncccn4)CC3)[C@H]12	0.34
